From PubChem
Sfp inh: Sfp phosphopantetheinyl transferase inhibition; Biochemical Sfp PPTase activity, qHTS; Potency, µM, without a hit: max response, negative = inhibition, hits mostly inhibitors; 310,000 tested, 3.5% active; AID 1490; active = well fitted inhibition curve with a large enough effect; inconclusive = small, poorly fitted or top-dose-only effect, or another doubt; inactive = no such curve, though single readings can be large or run the other way;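 note: the enzyme is Sfp with the accession as filed and its product quenches rhodamine fluorescence; potency is the fitted concentration of half-maximal effect; 0% = enzyme reaction without inhibitor and -100% = no enzyme wells; top concentration of the series not given in the record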
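Compounds were incubated with enzyme (final 15 nM) for 15 min at room temperature before substrate addition started the reaction. Fluorescence at 525 nm excitation, 598 nm emission was recorded immediately and after 30 minutes.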
TRPML1 ag: human mucolipin-1 channel agonism; Q9GZU1; activation, % (concentration not given with the values); AID 624414; TRPML1-expressing cells, Ca2+ dye fluorescence, FDSS; host cell line not named in the record; reference of the full effect not given here; 410,000 tested, 0.12% active; in the data active = activation above about 50%; inconclusive = about 30% to 50%; inactive = below about 30%; note: 0% is about no effect; the text of the record puts the active cut at 80%
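TRPML1-DL cells, Tet-induced overnight (~16 h, 37 degrees C), loaded 45-90 min at room temperature with Ca8 no-wash calcium dye plus quencher. FDSS fluorescence: 10 s baseline, compound pin-transfer, 110 s agonist read, then EC80 54-4 (4uM final) and 110 s antagonist read.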
ClpP mod: qHTS Assay for Activators of ClpP. ATP-dependent Clp protease proteolytic subunit (Bacillus subtilis (strain 168)), P80244. 340,000 tested, 1.9% active. Potency, µM (highest dose often 57.5 µM), for inactives: top-dose activity change, negative = active. purified B. subtilis ClpP, FRET peptide cleavage, 20 min; active = well fitted falling curve with a large enough effect; inconclusive = small, poorly fitted or top-dose-only effect; inactive = no such curve, though single readings can be large or run the other way; note: potency is the fitted concentration of half-maximal effect; the source files actives as falling curves though it sought activators and does not explain the sign; nearly all actives have a fitted effect of over 65% in size; many hits overshoot -100%
Target sequence (P80244 whole entry, looked up): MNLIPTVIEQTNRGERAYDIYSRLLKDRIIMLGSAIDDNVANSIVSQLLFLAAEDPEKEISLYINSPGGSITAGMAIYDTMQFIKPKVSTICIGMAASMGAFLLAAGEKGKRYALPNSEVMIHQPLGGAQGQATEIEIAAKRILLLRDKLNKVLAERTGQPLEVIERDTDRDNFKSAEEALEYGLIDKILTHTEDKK
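FRET quenching reversal measured ClpP activation: 10 microg/mL B. subtilis ClpP at pH 8 with the FRET-FV decapeptide, read at 430 nm after 320 nm excitation. The 20-min minus 0-min signal was scaled between DMSO/no-enzyme wells and ADEP (5.8 microM final).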
PINK1 expr mod: changes PINK1 expression. PINK1 immunofluorescence, high-content cytometry, 24 h. Potency, µM (top dose mostly 76.6 µM), inactives show at the highest dose activation (PINK1 increase), actives largely listed as activators. 410,000 tested, 0.2% active. AID 624263; active = well fitted activation curve with a large enough effect; inconclusive = small, poorly fitted or top-dose-only effect; inactive = flat fitted curve, though single readings scatter; cell line not stated here;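 note: potency is the fitted concentration of half-maximal effect; % of control where 0% means no effect; nearly all actives have a fitted effect of over 65% in size; a mitochondrial uncoupler was the plate control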
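A stable cell line was treated with compounds at 5 concentrations for 24 hours, with CCCP as control. PINK1 levels and mitochondrial localization were measured by immunofluorescence with mitochondrial, cell and nuclear markers after fixation, read by laser-scanning cytometry.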
Menin MLL FP FL: inhibitors of human menin-MLL interaction, wild-type MLL peptide. Fluorescence polarization, fluorescein-MLL peptide displacement from menin. FP activity change, % at 61.4 µM. 290,000 tested, under 10 active; inconclusive = falling polarisation curve, or a change in total fluorescence; inactive = total fluorescence flat and polarisation flat or rising; no compound was filed as active; the % refers to the polarisation; negative = inhibition;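 note: % of control where 0% means no effect; inhibitors lower the polarisation; unlabelled MLL peptide was the positive control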
TRPV1 PAM: potentiators of human vanilloid receptor 1 (TRPV1); Q8NER1; AID 540277; 320,000 tested, 0.02% active; potentiation, % at 8.33 µM; TRPV1-expressing cells, Fluo-8 calcium influx, capsaicin EC20 potentiation; host cell line not named in the record; control for the full effect not named in the record; active means potentiation above 80%; inconclusive means 30% to 80%; inactive means below 30%; note: 0% is about no effect
Target sequence (Q8NER1 whole entry, looked up): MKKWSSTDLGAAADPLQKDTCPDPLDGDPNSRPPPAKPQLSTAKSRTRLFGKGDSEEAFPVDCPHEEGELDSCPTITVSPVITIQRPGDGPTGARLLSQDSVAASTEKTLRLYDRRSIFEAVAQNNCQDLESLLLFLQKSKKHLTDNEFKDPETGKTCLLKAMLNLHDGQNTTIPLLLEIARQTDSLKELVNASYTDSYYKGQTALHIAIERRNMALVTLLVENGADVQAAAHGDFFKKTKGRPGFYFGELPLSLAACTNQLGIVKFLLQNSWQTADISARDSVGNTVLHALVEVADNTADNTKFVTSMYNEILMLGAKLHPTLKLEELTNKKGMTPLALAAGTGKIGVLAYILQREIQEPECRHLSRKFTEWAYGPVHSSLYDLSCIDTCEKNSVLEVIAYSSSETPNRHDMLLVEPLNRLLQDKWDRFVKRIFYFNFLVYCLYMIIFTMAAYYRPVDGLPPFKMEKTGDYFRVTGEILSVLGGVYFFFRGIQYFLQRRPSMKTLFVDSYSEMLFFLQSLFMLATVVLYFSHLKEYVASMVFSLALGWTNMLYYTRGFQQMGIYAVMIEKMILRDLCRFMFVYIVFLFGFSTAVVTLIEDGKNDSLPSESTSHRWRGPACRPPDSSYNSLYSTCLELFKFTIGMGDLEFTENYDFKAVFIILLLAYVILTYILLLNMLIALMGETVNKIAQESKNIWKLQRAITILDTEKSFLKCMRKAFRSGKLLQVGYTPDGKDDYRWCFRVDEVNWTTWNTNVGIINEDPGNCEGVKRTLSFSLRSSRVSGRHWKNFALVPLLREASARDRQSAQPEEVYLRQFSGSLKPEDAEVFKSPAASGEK
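TRPV1-expressing cells were cultured overnight at 35.5C and loaded with Fluo-8 calcium dye for 40 to 90 min at room temperature. After a 10 s baseline, compound was added and calcium influx was read kinetically for 3 min (ex 480/em 520 nm).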
TRPML1 inh: blocks the human TRPML1 channel | Q9GZU1 | TRPML1-inducible cells, Ca2+ dye fluorescence, FDSS; active compounds read low; inhibition of EC80 agonist-evoked calcium signal | activity change, negative = inhibition, % (concentration not given with the values) | 390,000 tested, 0.02% active; in the data active means activity change below about -50%; inconclusive means about -30% to -50%; inactive means above about -30%;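 note: stimulus is agonist 54-4 at its EC80 concentration; % is set by controls: 0 for no effect and ±100 for the full control effect; the text of the record puts the active cut at -80%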
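Calcium fluorescence in TRPML1-DL cells induced overnight with Tet: a 110 s read after compound pin addition, then a 110 s antagonist read after challenge with 54-4 at 4 uM final (EC80).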
An asterisk follows results filed as active; ? = inconclusive; / = not tested or not shown; [ ] = another dose, or the depositor's remark.

Each structure is followed by: Sfp inh	TRPML1 ag	ClpP mod	PINK1 expr mod	Menin MLL FP FL	TRPV1 PAM	TRPML1 inh
- Cn1c(SCc2ccc(Cl)cc2)nnc1-c1ccc(NC(=O)CCc2ccccc2)cc1
    /	-1.0	1.3%	0.7%	/	/	/
- COc1cc(SC)ccc1C(=O)NCCOc1ccc(F)cc1
    -5.5%	1.4	-2.9%	-1.7%	4.3	-6.6	-0.9
- Cc1ccc(C(=O)CC(C(=O)O)n2cncn2)cc1 (stereo not drawn)
    -5.1%	-0.3	-1.3%	0.5%	-5.3	-3.7	-27.4
- Cc1ccc(-c2oc3ccccc3c(=O)c2OCC(=O)O)cc1
    18.3%	1.1	/	-1.1%	-0.8	9.2	-14.4
- Cn1c(NCCCO)nc2c1c(=O)n(Cc1cccc(F)c1)c(=O)n2C
    /	-0.3	-1.8%	1.4%	/	/	9.6
- CCN(CC)C(=O)/C(NC(=O)c1ccccc1)=C(/Sc1ncccn1)c1ccccc1
    ?	0.0	-0.4%	0.9%	6.1	-7.4	-11.4
- CCCCN(C(=O)c1cc(=O)[nH]c2ccccc12)c1c(N)n(CCC)c(=O)[nH]c1=O
    12.9%	1.0	/	3.9%	-0.6	5.7	16.7
- CCCCCNC(=O)C(C)Sc1ccc(Cl)cc1 (stereo not drawn)
    5.1%	3.3	-8.5%	-0.8%[38.3 µM]	-0.6	-12.3	-6.8
- Cc1ccc(-c2cccc(NC(=O)C3C(C(=O)O)[C@@H]4C=C[C@H]3C4)c2)o1 (stereo partly drawn)
    7.94µM*	-0.7	-5.0%	1.7%	4.5	1.7	6.0
- COc1cc(C(=S)N2CCOCC2)ccc1OC(=O)Cc1ccc(F)cc1
    2.2%	-1.3	0.8%	-1.8%	0.6	-17.6	-2.0
- Cc1cc2c(=O)c(C(=O)c3ccncc3)cn(CC(=O)Nc3cccc(C)c3C)c2cc1C
    /	-0.5	-2.7%	-0.8%	/	/	3.9
- Cc1ccc(CC(=O)NCC(O)c2ccccc2)cc1 (stereo not drawn)
    12.3%	-0.8	/	-2.9%	-0.8	10.6	-1.4
- CCN(C(=S)Nc1cc(S(=O)(=O)N2CCOCC2)ccc1Cl)c1cccc2ccccc12
    3.98µM*	1.9	11.2µM*	1.2%	-1.8	-1.4	-15.1
- COc1cccc(-c2csc(-c3c(N)c(C(=O)c4ccc5c(c4)OCO5)n4ccccc34)n2)c1
    /	2.7	0.8%	10.5%	/	/	14.2
- O=C(Cn1cc(S(=O)(=O)Cc2ccccc2Cl)c2ccccc21)Nc1ccc(F)cc1F
    /	0.5	1.2%	2.0%	/	/	13.8
- O=[N+]([O-])c1cccc(Cn2cnc3c(=S)nc[nH]c32)c1
    /	-0.4	/	5.7%	/	/	-2.2
- N#C/C(=C/c1ccc(N2CCCCCC2)o1)c1ccc(Cl)cc1
    5.01µM*	1.5	0.6%	7.94µM*	?	5.6	-2.6
- Cc1cccc(NC(=O)C2C(c3ccccc3)C2(Cl)Cl)c1 (stereo not drawn)
    6.6%	2.9	-1.5%	?	-2.1	-11.8	-12.6
- CC(C)C(c1nnnn1Cc1ccc2c(c1)OCO2)N1CCN(c2ccccc2)CC1 (stereo not drawn)
    3.0%	4.2	-0.5%	0.3%	-0.6	-2.8	-12.5
- Cc1nnc(-c2cccc(C(F)(F)F)c2)nc1N1CCOCC1
    11.7%	-0.4	/	-1.5%	-4.2	-5.8	-4.1
- CNC(=O)C1CC(=O)N(Cc2ccc(OC)c(OC)c2)C(=Nc2ccc(OC)cc2)S1 (stereo not drawn)
    12.5%	0.8	1.2%	-0.3%	3.3	2.9	1.6
- CC(NC(N)=O)C12CC3CC(CC(C3)C1)C2 (stereo not drawn)
    -1.9%	0.3	1.9%	?	4.9	1.6	-17.8
- Cc1cc(NC(=O)CCC(=O)N(c2ccc(C)c(F)c2)C(C(=O)NC2CCCC2)c2ccco2)no1 (stereo not drawn)
    3.4%	3.2	/	-0.6%	7.5	1.1	20.4
- COc1ccc(C(=O)Nc2nnc(SCC(=O)NCc3ccco3)s2)c(OC)c1
    -1.1%	-0.1	3.9%	11.6%	/	16.2	3.5
- Cc1cc(C)n(C(=O)c2ccc(Cl)c(F)c2F)n1
    -4.6%	-1.6	1.5%	7.6%	-1.4	-3.1	-1.8
- CCOc1ccc(S(=O)(=O)Nc2ccc3oc(C)c(C(=O)OCCOC)c3c2)cc1
    /	0.2	-1.2%	5.4%	/	/	-20.7
- Cn1cnnc1SCC(=O)Nc1ccc(N2CCCCC2)cc1
    /	-0.3	-0.2%	0.4%	/	3.6	-7.7
- CCCCCCNC(=O)CCCCCNS(=O)(=O)c1ccc(OC)cc1
    0.7%	0.8	0.6%	0.4%	2.1	4.1	-14.9
- CCSc1nnc(NC(=O)c2csc3c2CCCC3)s1
    21.0%	2.7	?	24.6%[38.3 µM]	-0.1	14.6	3.8
- CC(=O)c1c(C)[nH]c(C(=O)Nc2ccc3c(c2)OCCO3)c1C
    -22.3%	-0.5	1.2%	1.7%	2.2	22.2	20.7

A draw from above in order of molecular weight, rising:
Each structure is followed by: Sfp inh	TRPML1 ag	ClpP mod	PINK1 expr mod	Menin MLL FP FL	TRPV1 PAM	TRPML1 inh
- CC(NC(N)=O)C12CC3CC(CC(C3)C1)C2 (stereo not drawn)
    -1.9%	0.3	1.9%	?	4.9	1.6	-17.8
- Cc1cc(C)n(C(=O)c2ccc(Cl)c(F)c2F)n1
    -4.6%	-1.6	1.5%	7.6%	-1.4	-3.1	-1.8
- O=[N+]([O-])c1cccc(Cn2cnc3c(=S)nc[nH]c32)c1
    /	-0.4	/	5.7%	/	/	-2.2
- Cc1nnc(-c2cccc(C(F)(F)F)c2)nc1N1CCOCC1
    11.7%	-0.4	/	-1.5%	-4.2	-5.8	-4.1
- CCSc1nnc(NC(=O)c2csc3c2CCCC3)s1
    21.0%	2.7	?	24.6%[38.3 µM]	-0.1	14.6	3.8
- CCCCCCNC(=O)CCCCCNS(=O)(=O)c1ccc(OC)cc1
    0.7%	0.8	0.6%	0.4%	2.1	4.1	-14.9

Continuation:
Each structure is followed by: Sfp inh	TRPML1 ag	ClpP mod	PINK1 expr mod	Menin MLL FP FL	TRPV1 PAM	TRPML1 inh
- Cc1ccc(CNC(=O)CCCCCNC(=O)N2CCn3c2nc2ccccc23)cc1
    9.7%	-1.1	-0.3%	-0.6%	-1.5	27.3	-5.7
- Nc1nc2ccccc2n1CCOc1ccccc1Cl
    -3.3%	-0.7	1.1%	-1.3%	3.8	5.9	1.8
- O=C(CCN1C(=O)C2CCCCC2C1=O)Nc1nc(-c2ccc(F)c(F)c2)cs1 (stereo not drawn)
    17.7%	-0.5	-3.7%	-0.7%	3.2	3.3	12.2
- COc1ccc(OC)c(NC(=O)c2nnn(Cc3ccccc3C)c2N)c1
    ?	1.0	-9.7%	1.9%[38.3 µM]	5.7	8.5	-3.9
- CC(=O)N(C)c1ccc(OCC(O)Cn2c3ccc(Cl)cc3c3cc(Cl)ccc32)cc1 (stereo not drawn)
    -5.4%	4.9	-3.7%	2.9%	-1.0	7.2	39.5
- NC(=O)NC(Cc1ccccc1)c1ccccc1 (stereo not drawn)
    -1.4%	0.8	-2.1%	7.0%[38.3 µM]	0.9	-13.5	-2.4
- CC1(C)CCCC2(C)C3C(O)CC2(C)C(O)C31 (stereo not drawn)
    17.1%	/	/	-1.1%	-0.1	/	/
- O=C(COc1ccccc1)N(Cc1cccnc1)c1nc2ccc(Cl)cc2s1
    /	1.0	0.9%	8.9%	/	/	18.2
- COc1ccc(OC)c(NC(=O)N2CCc3ccccc3C2)c1
    10.6%	1.1	0.1%	0.0%	/	-3.2	-8.1
- CCCCN(C(=O)c1cc2ccccc2o1)c1c(N)n(CCCC)c(=O)[nH]c1=O
    /	-0.7	-12.0%	1.0%	/	-3.3	-1.1
- Cc1nc2cc(C(=O)O)ccc2n1-c1ccc(C(C)C)cc1
    /	0.1	-3.0%	1.3%	/	/	-2.3
- CSc1nnc(-c2cccc(NC(=S)NN)c2)o1
    -20.1%	-0.2	-2.1%	2.8%	-0.1	3.9	?
- CN1CC(c2ccccc2)C(c2ccc(Cl)cc2)=N1 (stereo not drawn)
    -3.6%	-0.3	?	?	1.5	-5.5	9.5
- CCOC(=O)NCc1ccc(CNC(=O)OCC)cc1
    11.6%	-0.7	-1.0%	-0.9%	-2.3	1.4	-3.5
- CCN1C(=O)N(C(C)=O)C2C1N(C(C)=O)C(=O)N2C(C)=O (stereo not drawn)
    15.3%	0.0	/	1.0%	-0.9	0.3	5.3

Whole records as entered above. Order of screens: Sfp inh | TRPML1 ag | ClpP mod | PINK1 expr mod | Menin MLL FP FL | TRPV1 PAM | TRPML1 inh
O=C(COc1ccccc1)N(Cc1cccnc1)c1nc2ccc(Cl)cc2s1 across the screens: / | 1.0 | 0.9% | 8.9% | / | / | 18.2
Nc1nc2ccccc2n1CCOc1ccccc1Cl across the screens: -3.3% | -0.7 | 1.1% | -1.3% | 3.8 | 5.9 | 1.8

Going on with the list:
Each structure is followed by: Sfp inh	TRPML1 ag	ClpP mod	PINK1 expr mod	Menin MLL FP FL	TRPV1 PAM	TRPML1 inh
- COc1cccc(/C=N/n2c(C)nc3ccccc32)c1OC
    -23.5%	1.8	-2.5%	9.4%	0.6	-18.3	-12.4
- CC(C)COC(=O)N1CC(O)CC1C(=O)Nc1ccc2c(c1)OCO2 (stereo not drawn)
    /	0.3	3.1%	0.2%	/	2.5	4.2
- COc1ccccc1C(=O)Nc1onc(C)c1C#N
    -1.1%	0.6	-0.5%	-1.7%	3.1	12.8	-11.0
- Cc1ccccc1NS(=O)(=O)c1ccc(NS(=O)(=O)c2cccs2)cc1
    15.2%	-0.6	/	1.3%	-7.4	7.2	-0.3
- Cc1nc(NC(=O)c2cc3ccccc3o2)ccc1Br
    -1.2%	0.5	-7.9%	?	-2.8	-14.6	0.8
- COC(=O)CCc1cccc(CCC(=O)OC)c1
    13.9%	-0.4	-0.8%	1.7%	2.0	7.9	8.2
- C#CCOCCOCCOCCNc1nc(N2CCN(C(=O)[C@H](C)n3cc(CCCN=C(N)N)nn3)CC2)nc(N2CCN(C(=O)[C@H](CCCCN)n3cc(CCCC)nn3)CC2)n1
    3.8%	/	/	/	-0.6	2.4	/
- CCCCN(C(=O)CSCC(=O)Nc1ccc(OC)cc1)c1c(N)n(Cc2ccccc2)c(=O)[nH]c1=O
    /	0.2	-4.1%	1.3%	/	8.3	-4.6
